Screens (PubChem)
Vaccinia mCherry – inhibitors of vaccinia virus infection (mCherry reporter signal); actives 0.63% (n = 310,000); Vaccinia virus mCherry reporter infection, fluorescence; about a quarter of the inactives have no number; Potency, µM (top dose mostly 36.5 µM), for inactives: top-dose activity change, negative = inhibition, most hits filed as inhibitors; active = well fitted inhibition curve with a large enough effect; inconclusive = small, poorly fitted or top-dose-only effect; inactive = no such curve, though single readings can be large or run the other way; tested in A549 cells; further: nearly all actives have a fitted effect of over 35% in size; inactives centre near -10
Vaccinia Venus – inhibitors of vaccinia virus (Venus reporter); Potency, µM (top dose mostly 36.5 µM), for the others: at the highest dose activity change, negative = inhibition, usual class: inhibitors; Vaccinia virus Venus reporter expression, fluorescence; actives 0.46% (n = 330,000); active means well fitted inhibition curve with a large enough effect; inconclusive means small, poorly fitted or top-dose-only effect; inactive means no such curve, though single readings can be large or run the other way; tested in A549 cells; further: nearly all actives have a fitted effect of over 30% in size; inactives centre near -10
* hit, by the source's call; i = inactive; ? = inconclusive; . = not tested or not shown; & = joins results of further samples; [ ] = dose if it differs, or a comment. On the % scale 0 is the no-effect control and ±100 the full control effect; potency means the concentration at half of the fitted maximal effect.

SMILES | Vaccinia mCherry | Vaccinia Venus
OCCCc1ccc(O)c(O)c1 | -5% | -2%
COc1ccc(CNC(=O)CN(C(=O)CCC(=O)Nc2ccccn2)c2cccc(C)c2C)cc1 | -26% | -13%
COC(=O)c1c(C)oc(C)c1S(=O)(=O)NC(C)(C)C | -9% | -17%
O=c1c2c(-c3ccc([N+](=O)[O-])cc3)csc2nc2n1CCC2 | . | -17%
CC(C)c1ccc(NC(=O)Cc2cn(C)c3ccccc23)cc1 | -1% | -25%
CC(=O)Nc1ccccc1Oc1ccccc1 | i | 0%
O=C(CN1CCOCC1)Nc1nc2ccc(F)cc2s1 | . | -16%
Cc1cccc(NC(=O)COC(=O)Cc2c[nH]c3ccccc23)c1C | -15% | -5%
CCOC(=O)c1cccc(NS(=O)(=O)c2cc(-c3cnc(C)o3)ccc2OC)c1 | -9% | -12%
COc1ccc(-c2noc(CN3CCC(Cc4ccccc4)CC3)n2)cc1 | -19% | -17%
CN(Cc1ccccc1Cl)C(=O)c1cnccc1C(F)(F)F | i | -11%
O=C(CN1CCOCC1)N1N=C(c2cccs2)CC1c1cccs1 (centres undefined) | -16% | -7%
CCc1nnc(NC(=O)CSc2nc(N)c(NC(=O)c3ccc(OC)cc3)c(=O)[nH]2)s1 | -11% | -6%
O=C(O)c1cc(C(=O)C2CC2)c[nH]1 | i | -5%
O=C(O)CC(NC(=O)/C(=C/c1ccccc1)NC(=O)c1ccccc1)c1ccccc1 (centres undefined) | -24% | -12%
Cc1cccc(N(CC(=O)NCCc2ccccc2)C(=O)CCC(=O)Nc2ccccn2)c1C | i | -28%
COc1cccc(C(c2sc3ncnn3c2O)N2CCN(C(=O)c3ccco3)CC2)c1 (centres undefined) | 6% | 1%
CCOC(=O)[C@H]1[C@H]2COc3ccccc3[C@@H]2N2C(=O)CN(Cc3ccccc3)C(=O)[C@@]12C | i | -2%
CC(C)C(c1nnnn1C1CCCCC1)N1CCc2ccccc2C1 (centres undefined) | i | -17%
CC(=O)c1cccc(S(=O)(=O)NC2CCSc3ccccc32)c1 (centres undefined) | -5% | -18%
O=C(Nc1cc(Sc2nc3ccccc3s2)cc([N+](=O)[O-])c1)c1ccccc1F | -21% | ?
CN(C)c1c([N+](=O)[O-])cc(N2C(=O)C=CC2=O)cc1[N+](=O)[O-] | -17% | -11%
CC(=O)c1ccc(OCc2cc(C(=O)N3CCOCC3)no2)cc1 | -18% | -20%
COC(=O)/C(=C/c1ccc(OC)cc1)NC(=O)c1ccco1 | -13% | -11%
CCC(=NCCN1CCCCC1)c1c(O)n(C)c(=O)n(C)c1=O | . | -10%
O=C(COC(=O)/C=C/c1ccc(S(=O)(=O)N2CCOCC2)cc1)Nc1ccccc1F | -21% | -2%
COc1cc(NS(=O)(=O)c2ccc3[nH]c4c(c3c2)CCCCCC4)cc(OC)c1 | -20% | -9%
COc1ccc(NS(=O)(=O)c2cccc(C(=O)NC3CCN(Cc4ccccc4)CC3)c2)cc1 | -23% | -19%
CCCNC(=O)COC(=O)c1ccc(S(=O)(=O)N2CCCC2)cc1 | i | -1%
O=C(c1ccc([N+](=O)[O-])cc1)N1CCOC12CCN(c1ncc(C(F)(F)F)cc1Cl)CC2 | -5%[1.46 µM] | -4%

Exported with values under each structure: 4 of the compounds above.
Below each SMILES – Vaccinia mCherry	Vaccinia Venus
O=C(COC(=O)/C=C/c1ccc(S(=O)(=O)N2CCOCC2)cc1)Nc1ccccc1F
 : -21%	-2%
COc1cc(NS(=O)(=O)c2ccc3[nH]c4c(c3c2)CCCCCC4)cc(OC)c1
 : -20%	-9%
COc1ccc(NS(=O)(=O)c2cccc(C(=O)NC3CCN(Cc4ccccc4)CC3)c2)cc1
 : -23%	-19%
CCCNC(=O)COC(=O)c1ccc(S(=O)(=O)N2CCCC2)cc1
 : i	-1%

(continued)
SMILES | Vaccinia mCherry | Vaccinia Venus
COC(=O)CSc1nc(NCc2ccccc2)nc(N(C)C)n1 | -5% | -11%
COc1ccc(Cl)cc1NC(=S)N1CCN(C(=O)c2ccco2)CC1 | i | -13%
CCC(=O)Nc1ccc(NC(=O)c2cc3ccccc3o2)c(OC)c1 | -2% | -24%
Cc1ccc([C@H]2C[C@@H](O)[C@H](n3cc(C4CC4)nn3)CN2CC2CCCCC2)cc1 | -28% | ?
COC(=O)/C=C/c1ccc2c(c1)S(=O)(=O)N(Cc1ccc(OC)cc1)[C@H]2CC(=O)OC | i | -15%
O=C(C[n+]1cc(Br)cc(Br)c1)c1ccc2c(c1)CCCC2 | 28% | -14%
CN1CCN(C(=O)c2ccc3c(c2)N(Cc2ccc(F)cc2)C(=O)c2ccccc2S3=O)CC1 (centres undefined) | -13% | -17%&-2%
CC1CCCCC1NC(=O)c1cncc(Br)c1 (centres undefined) | -11% | -3%
CCc1ccccc1NC(=O)CSc1nc2n[nH]c(C)c2c(=N)n1-c1ccc(OC)cc1 | . | ?
Cc1ccc(/C=C/C(=O)NCCCN2CCN(CCCNC(=O)/C=C/c3ccc(C)o3)CC2)o1 | -11% | -3%
CC(=O)c1ccc(S(=O)(=O)Nc2ccc(C(=O)NCC(c3ccco3)N3CCCC3)cc2)cc1 (centres undefined) | -17% | -4%
O=C(NCC1CCCO1)c1cc2c(s1)CS(=O)(=O)C2 (centres undefined) | i | 3%
CCOC(=O)CSc1nc2c(cnn2-c2ccc(Cl)cc2)c(=O)[nH]1 | -17% | -10%
Cc1cc(C)n(-c2nc3ccccc3nc2Nc2cccc(C)c2C)n1 | -3% | -5%
CN(C)C(=S)SCC(=O)NC(=O)NC(C)(C)C | -2% | -12%
[C-]#[N+]c1cc(-c2ccncc2)c(C)[nH]c1=O | -23%[87.9 µM] | -15%[87.9 µM]
CCN(CC)c1nn2c(=O)c(C(=O)NCc3ccc(F)cc3)cnc2s1 | -15% | -6%
CC(=O)c1cc(-c2ccccc2)n(CC(=O)NC2CCCCC2)c1C | -5% | 0%
Cn1c(Cn2nnc3ccccc32)nnc1SCC(=O)N1c2ccccc2Sc2ccccc21 | i | -26%
C#CC(CC)(CC)NC(=O)c1cc(S(=O)(=O)N2CCCCC2)ccc1N1CCOCC1 | -11% | -2%
CC1(C)C(=O)N(CC(=O)Nc2ccc(Br)cc2F)c2ccccc21 | -9% | -3%
CCOC(=O)c1nnn(-c2nonc2N)c1COc1cc(C)c(Cl)c(C)c1 | i | -8%
COc1ccc2c(CNCCc3ccco3)c(C(=O)O)n(Cc3ccc(C)cc3)c2c1 | 8% | 2%
CCOc1cc(N2CCOCC2)c(OCC)cc1NC(=O)COC(=O)c1ccc(OC)c([N+](=O)[O-])c1 | -18% | -4%
O=C(c1cc(S(=O)(=O)N2CCOCC2)ccc1F)N(Cc1nnc(-c2ccccc2Cl)o1)C1CC1 | 0% | -19%
Cc1nc([N+](=O)[O-])cn1CC(=O)c1ccc(Br)cc1 | -7% | -3%
Nc1cc(OC(=O)c2ccc(F)cc2)nn1S(=O)(=O)c1ccccc1 | -24% | -15%
N#C/C(=C(/O)c1cccs1)c1nc2ccccc2[nH]1 | ? | -10%
Fc1ccc(Nc2nc(SCc3ccc(Cl)cc3)nc3ccccc23)cc1 | -7% | -15%
COc1ccc(S(=O)(=O)N2CCN(CC(=O)Nc3cc(C(F)(F)F)ccc3Cl)CC2)cc1 | . | -15%

Random excerpt: 7 compounds from above, in no set order.
SMILES | Vaccinia mCherry | Vaccinia Venus
O=C(CN1CCOCC1)Nc1nc2ccc(F)cc2s1 | . | -16%
[C-]#[N+]c1cc(-c2ccncc2)c(C)[nH]c1=O | -23%[87.9 µM] | -15%[87.9 µM]
CN(C)c1c([N+](=O)[O-])cc(N2C(=O)C=CC2=O)cc1[N+](=O)[O-] | -17% | -11%
Cc1cccc(NC(=O)COC(=O)Cc2c[nH]c3ccccc23)c1C | -15% | -5%
CCOC(=O)CSc1nc2c(cnn2-c2ccc(Cl)cc2)c(=O)[nH]1 | -17% | -10%
CCOc1cc(N2CCOCC2)c(OCC)cc1NC(=O)COC(=O)c1ccc(OC)c([N+](=O)[O-])c1 | -18% | -4%
Cc1ccc(/C=C/C(=O)NCCCN2CCN(CCCNC(=O)/C=C/c3ccc(C)o3)CC2)o1 | -11% | -3%

(further entries)
SMILES | Vaccinia mCherry | Vaccinia Venus
COC(=O)CCCC1=CC2=CC(=O)C(C)(OC(=O)c3cccs3)C(=O)C2=CN1c1cccc(C#N)c1 (centres undefined) | -8% | -3%
C=CCC(=O)N1CCC(n2nccc2NC(=O)c2ccc3c(c2)OCO3)CC1 | i | -9%
Cn1c(=O)c2c(nc(SCC(=O)Nc3ccccc3F)n2Cc2ccccc2F)n(C)c1=O | -14% | -21%
CC(C)Cc1nnc(NC(=O)CCC(=O)N2CCOCC2)s1 | i | -11%
Cc1cc(C(F)(F)F)nc(SCc2ccc(C(=O)O)o2)n1 | -13% | -6%
COc1ccc(NS(=O)(=O)c2ccc3oc(=S)[nH]c3c2)cc1 | i | -10%
CC1CCN(C(=O)COC(=O)Cc2ccc(Br)cc2)CC1 | -14% | -5%
N#CC1=C(N)Oc2c(c(=O)oc3ccccc23)C1c1ccc(OC(=O)N2CCOCC2)cc1 (centres undefined) | -13% | -6%
CCCNC(=O)C12CCC(C)(c3nc4cc(C)c(C)cc4nc31)C2(C)C (centres undefined) | -4% | -4%
Cc1ccc(-n2c(C)cc3c2CCCC3=O)cc1 | i | -9%
COc1ccc(OC)c(C2C(C(=O)N3CCCCC3)=C(C)Nc3nc4ccccc4n32)c1 (centres undefined) | -17% | -4%
O=C(CN1C(=O)CCS(=O)(=O)c2ccccc21)Nc1ccc(Cl)cc1 | -5% | -8%
O=C(c1ccc2snnc2c1)N1CCCC1 | -13% | -8%
CC(NC(=O)c1cc(S(=O)(=O)N(C)C)ccc1Cl)c1ccc(-n2ccnc2)cc1 (centres undefined) | -22% | -6%
CCOC(=O)[C@H]1[C@H]2COc3ccc(OC)cc3[C@@H]2N2C(=O)CN(Cc3ccc(F)cc3)C(=O)[C@@]12C | -17% | -17%

Copied from the list.
Vaccinia mCherry, Fc1ccc(Nc2nc(SCc3ccc(Cl)cc3)nc3ccccc23)cc1 = -7%
Vaccinia Venus, Cc1nc([N+](=O)[O-])cn1CC(=O)c1ccc(Br)cc1 = -3%
Vaccinia Venus, COC(=O)/C=C/c1ccc2c(c1)S(=O)(=O)N(Cc1ccc(OC)cc1)[C@H]2CC(=O)OC = -15%

Going on with the list.
SMILES | Vaccinia mCherry | Vaccinia Venus
O=C(NC1(C(F)(F)F)C(=O)Nc2c1c(=O)[nH]c(=O)n2Cc1ccccc1)c1ccc(Cl)cc1 (centres undefined) | -12% | -13%
O=C(NC1CCCCC1)C(C1CC1)n1c(=O)c(-c2ccccc2)nc2ccccc21 (centres undefined) | -9% | -9%
O=C1OCCN1c1ccccc1 | i | -2%
O=C(CCS(=O)(=O)c1ccccc1)Nc1ncc([N+](=O)[O-])s1 | -12% | ?
Cc1nc2ccc(S(=O)(=O)NC(C(=O)N3CCN(c4cccc(Cl)c4)CC3)C(C)C)cc2s1 (centres undefined) | -12% | -2%
CCOc1cc(N2CCOCC2)c(OCC)cc1NC(C)C(=O)N1CCN(CC)CC1 (centres undefined) | 5% | -10%
COc1ccc(NC(=O)Nc2sc(=S)n(C)c2C)cc1 | ? | -7%
O=C(O)C1CC=CCC1C(=O)Nc1ccc(F)c(F)c1 (centres undefined) | -4% | -2%
COCCNC(=O)C1Cc2c(-c3cccc(NC(C)=O)c3)ccnc2O1 (centres undefined) | 48%[activator] | -7%
Cc1ccc([N+](=O)[O-])cc1S(=O)(=O)N1CCNCC1 | -22% | -28%
c1ccc(Cn2c(SCc3nc4ccccc4s3)nnc2-c2ccco2)cc1 | . | -8%
Cn1c(=O)c2cc3ccccc3nc2n(C)c1=O | -27% | 4%
O=C(NCc1ccccc1)/C(=C/c1cccc([N+](=O)[O-])c1)NC(=O)c1ccco1 | -7% | -7%
CC(=O)c1ccc(Nc2cc(C)nc3ccc(C)cc23)cc1 | -20% | -18%
Cc1ccccc1NC(=O)Nc1nc(CN(C)C)cs1 | 6% | -4%
CC1CCN(CC(=O)Nc2cccc(C(=O)Nc3cccc(C(F)(F)F)c3)c2)CC1 | -2% | ?
Cc1oc2ncnc(N3CCCCC3)c2c1C(=O)NCC1CCN(Cc2ccc(F)cc2)CC1 | i | -3%
